Source: PubChem BioAssay (several laboratories)
BJeLR lethal: BJeLR cell viability loss. 300,000 tested, 0.17% active. inhibition, % (test concentration not listed). BJeLR (HRASV12) viability, CellTiter-Glo ATP luminescence, 48 h; reference of the scale not given here. AID 1554;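 active means replicate mean above 50%; inconclusive means above 50% but judged a plate artefact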;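 further: 50 nL library stock added to about 25 µL; numbers are from one replicate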
Sa RN4220 lethal: kills Staphylococcus aureus RN4220; S. aureus RN4220 growth, OD600, 16 h; inhibition, % (no concentration beside the values); 330,000 tested, 0.33% active; AID 1259311;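 active means z-score of -3 or lower and OD600 up to 0.18 on both plates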;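 further: plate controls were untreated cells for no effect and reference antibiotic for full effect; stock transfer was 100 nL into about 80 µL; one replicate is shown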
PrP UTR inh: inhibition of PrP 5' UTR reporter expression; cell-based PrP 5' UTR mRNA reporter, plate reader; 340,000 tested, 0.35% active; inhibition, % (concentration not given with the values);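 active means every replicate at 50% or more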;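 further: 0 = median of the neutral control wells; tested in H4 reporter cells; numbers are from one replicate; inactives centre near -14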
Mtb hypoxia inh: Mtb hypoxia fluorescent reporter inhibition | M. tuberculosis hypoxia-regulated fluorescent reporter, fluorescence | 300,000 tested, 0.1% active | fluorescence inhibition, % (test concentration not listed);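 active means 35 to 45% if threefold the growth effect, above 45% if 1.5-fold the growth effect; inactive means the rest, general growth blockers included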;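 further: wells of about 50 µL received 100 nL stock; 0% = vehicle wells and 100% = reference inhibitor wells; whole bacteria with a GFP reporter of the hypoxia response; strong numbers were not always called active; many hits fall short of the cut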
Autofluor counter: counter-screen for toxin protease inhibitors: compound fluorescence | 360,000 tested, 3.1% active | fluorescence intensity (test concentration not listed) | compound autofluorescence counterscreen, microsphere flow cytometry; hits give high values;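 active means at least 3 SD above the mean of all compounds, about 16000 in these data; inconclusive means too few beads counted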;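 further: 100 nL of 1 mM stock went into each well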
Sa ugtP lethal: kills S. aureus RN4220 lacking UgtP | AID 1259309 | S. aureus RN4220 ugtP deletion, OD600 growth, 16 h; some inactives read as strong as hits | 330,000 tested, 0.54% active | growth inhibition, % (concentration not given with the values);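 active means z-score under -3 and OD600 up to 0.15 on both plates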;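 further: plate controls were untreated wells for no effect and antibiotic for full effect; wells of about 80 µL received 100 nL stock; the first replicate is given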
Mtb hypoxia inh growth: second read-out of Mtb hypoxia inh, no call of its own (marks repeat the call); growth inhibition, %; measured here: M. tuberculosis growth (absorbance);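 0% = vehicle and 100% = reference antibiotic; read after six days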
Numbers without * were called inactive; ? = inconclusive; . = no result given. Outcome played no part in choosing rows (roughly 3.9% active in at least one column).

SMILES	BJeLR lethal	Sa RN4220 lethal	PrP UTR inh	Mtb hypoxia inh	Mtb hypoxia inh growth	Autofluor counter	Sa ugtP lethal
O=C(Nc1nccs1)C1CC(=O)N(c2ccc(F)cc2)C1 (centres undefined)	-3	-3.0	-22	-6	-1	3954	0
COc1ccc(CNC(=O)CN(Cc2ccco2)C(=O)CCC(=O)Nc2ccccn2)cc1	0	2.0	-13	13	3	5407	4
CC(C)n1c(N2CCN(S(=O)(=O)c3cccc([N+](=O)[O-])c3)CC2)nc2ccccc21	-4	4.2	-43	-1	0	3180	-2
CCOCc1cn(CC(=O)c2ccc([N+](=O)[O-])cc2)c(C)nc1=N	-9	4.5	-27	0	8	?	0
COc1ccccc1-c1cc(C(=O)N2CCc3ccccc3C2)c2ccccc2n1	-2	-6.2	.	.	.	.	-17
O=C1N=C(N2CCCC2)CN1c1ccccc1	-20	5.9	-9	12	6	2502	2
On1onc2c3cc(-c4ccccc4)nc3ccc21	.	70	-36	.	.	8378	68
CCOc1ccc(/C=C(\C(=O)O)c2ccc(S(=O)(=O)N3CCCCC3)s2)cc1OC	.	4.0	-17	5	3	3121	3
CCOC(=O)CC(C)=NNc1nc(-c2ccccc2)cs1	.	6.0	.	5	4	.	12
COc1ccc(CNC(=O)C(c2ccco2)N(C(=O)c2snc(C(N)=O)c2N)c2cccc(OC)c2)cc1 (centres undefined)	-7	-1.4	-7	-6	-4	4547	-3
CCOC(=O)c1cccc(C2=CC(=O)CC(c3ccc(OC)c(OC)c3)C2)c1 (centres undefined)	.	14	.	9	8	.	-4
O=C(COc1ccc2c(-c3ccccc3)cc(=O)oc2c1)Nc1cccnc1	4	-1.5	-11	3	-8	5101	-2
COc1cc(N=c2ssnc2Cl)cc(OC)c1	-7	0.6	-6	.	.	4651	-4
CCN1C2OC3OC4C(OC3OC2N(CC)S1(=O)=O)N(CC)S(=O)(=O)N4CC (centres undefined)	0	-0.6	-12	8	-1	4312	11
CC(C)c1ccc(NC(=O)C2CC(=O)N(C(C)C)C2)cc1 (centres undefined)	2	-0.7	-28	.	.	4324	-5
COCCCNC(=O)CSc1nc2cc3c(cc2c(=O)n1CCCC(=O)NCc1ccc(OC)cc1)OCO3	28	9.6	-9	5	18	4512	2
CN(CC(=O)Nc1ccc(N2CCOCC2)cc1)CC(=O)Nc1ccc(Cl)cc1[N+](=O)[O-]	-9	6.2	-8	8	7	2322	-1
O=C(O)COCC(=O)Nc1cc(C(F)(F)F)cc(C(F)(F)F)c1	2	2.1	-5	-2	-1	4601	10
COc1cccc(OC)c1C(=O)NC(C)CCc1ccccc1 (centres undefined)	-15	1.4	2	9	5	.	9
O=C(Cn1cc2c(n1)CCCC2)NCc1cccs1	8	0.9	0	.	.	6124	6

Single records, as listed above:
Entry for On1onc2c3cc(-c4ccccc4)nc3ccc21 : BJeLR lethal: .; Sa RN4220 lethal: 70; PrP UTR inh: -36; Mtb hypoxia inh: .; Mtb hypoxia inh growth: .; Autofluor counter: 8378; Sa ugtP lethal: 68
Entry for CCOC(=O)c1cccc(C2=CC(=O)CC(c3ccc(OC)c(OC)c3)C2)c1 (centres undefined) : BJeLR lethal: .; Sa RN4220 lethal: 14; PrP UTR inh: .; Mtb hypoxia inh: 9; Mtb hypoxia inh growth: 8; Autofluor counter: .; Sa ugtP lethal: -4
Entry for COc1ccccc1-c1cc(C(=O)N2CCc3ccccc3C2)c2ccccc2n1 : BJeLR lethal: -2; Sa RN4220 lethal: -6.2; PrP UTR inh: .; Mtb hypoxia inh: .; Mtb hypoxia inh growth: .; Autofluor counter: .; Sa ugtP lethal: -17

The main list resumes, repeating the 2 entries before the break.
SMILES	BJeLR lethal	Sa RN4220 lethal	PrP UTR inh	Mtb hypoxia inh	Mtb hypoxia inh growth	Autofluor counter	Sa ugtP lethal
COc1cccc(OC)c1C(=O)NC(C)CCc1ccccc1 (centres undefined)	-15	1.4	2	9	5	.	9
O=C(Cn1cc2c(n1)CCCC2)NCc1cccs1	8	0.9	0	.	.	6124	6
Cc1ccc(C)c(Oc2ccc(S(=O)(=O)N3CCN(C)CC3)cn2)c1	-6	3.2	-35	10	1	.	1
Nc1nonc1-n1nnc(C(=O)N/N=C/C2CCCCC2)c1-c1ccccc1	-7	.	-15	.	.	5210	.
Nc1c(C(=O)NCCc2ccccc2)nnn1Cc1ccc(Br)cc1F	5	0.9	-19	-5	1	2496	-7
CCC12CN3CCN(CC(C3)C1=NNC(=O)Nc1ccccc1)C2	.	5.4	.	2	2	.	7
NC(=O)c1ccsc1NC(=O)CSc1nnc(C2CC2)n1Cc1ccccc1	7	-9.1	-14	.	.	2106	-6
O=C([C@@H]1Cc2ccccc2CN1)N1CCN(Cc2ccccc2)CC1	-5	1.8	5	0	1	4201	4
CCCOc1ccc(C(=O)N/N=C/c2ccc(-c3ccc(S(=O)(=O)Nc4ncccn4)cc3)o2)cc1	-15	.	-13	.	.	22659*	.
O=C1NN(c2ccccc2)C(=O)/C1=C/c1ccc(-c2cccc(C(=O)O)c2)o1	1	.	-13	.	.	3863	.
CN(Cc1ccccc1)c1ccc(C(=O)O)cc1[N+](=O)[O-]	12	5.6	3	5	3	2410	7
COc1cc(CNc2ccc(N3CCOCC3)c(C(=O)O)c2)ccc1OCC(N)=O	-2	-0.2	-12	3	2	4053	-2
CC1CC(=O)N(c2ccc(NCc3ccc(Cl)cc3)c([N+](=O)[O-])c2)C1=O (centres undefined)	-7	5.1	-15	1	-1	2221	8
CCC1CCCCN1S(=O)(=O)c1ccc(C(=O)Nc2nnc(C3=COCCO3)o2)cc1 (centres undefined)	-2	23	-15	14	14	6380	9
CCOC(=O)C1CCN(C(=O)CSc2n[nH]c(=O)[nH]c2=O)CC1	0	2.2	-11	3	5	2555	10
COc1ccc(NC(=O)CCNS(=O)(=O)c2cccc3nsnc23)cc1	0	-0.4	-27	2	8	4294	-3
COc1ccccc1CNC(=O)c1nnc(Cc2ccc(Cl)cc2)o1	2	-0.6	-21	-1	5	4744	-10
CC(=O)Oc1cc2c(C(=O)NCc3ccncc3)c(C)oc2c2ccccc12	4	-3.6	-12	6	1	5405	8
O=C(CNC(=O)c1ccc2c(c1)OCO2)NCc1cccs1	.	-2.2	-17	5	7	3987	0
O=C(CN1C(=O)S/C(=C\c2ccc(C(=O)O)cc2)C1=O)Nc1ccccc1	-10	3.8	-11	5	-1	3867	14
CC(O)(CC(=O)CC(=O)c1ccccc1)c1ccccc1 (centres undefined)	.	-0.1	5	6	3	2843	18
COc1ccc(CNC(=S)N/N=C(\C)c2ccc(OC)cc2)cc1	-15	.	1	.	.	3577	.
COC(=O)Cc1ccc(OCc2ccc(Cl)nc2)cc1	-4	8.7	-67	-10	-8	4067	5
O=C(NC1(C(F)(F)F)NC(=O)N(c2ccc(F)c(Cl)c2)C1=O)c1ccncc1 (centres undefined)	-1	-4.0	0	-6	6	23968*	-13
CC1CCN(C(=O)CSc2n[nH]c(-c3cccs3)n2)CC1	0	2.2	6	0	-2	7851	6
Cc1ccc(NS(=O)(=O)c2cccc(C(=O)O)c2)cc1S(=O)(=O)N1CCOCC1	3	4.1	-36	-6	-3	2549	6
COC(=O)c1c(NC(=O)CSc2ccccc2N)sc(C)c1C	2	9.9	-6	-6	-1	3593	5
O=C(Cc1ccc(-c2ccccc2)cc1)NCc1ccccc1	64*	-5.2	24	-4	-6	9994	-2
COc1ccc(S(=O)(=O)NCCC(=O)NC(C)c2ccccc2)cc1 (centres undefined)	-3	1.4	-2	6	4	11477	4
O=C(NC1CCc2ccccc21)C1CCN(S(=O)(=O)c2ccc(-n3cnnn3)cc2)CC1 (centres undefined)	3	2.0	-14	.	.	3830	-4
O=C(Cc1ccccc1)NC(NCCCN1CCOCC1)(C(F)(F)F)C(F)(F)F	7	4.7	-18	10	0	3559	4
COc1cccc(Nc2nc(-c3ccccc3)nc3ccccc23)c1	-7	57	11	2	-6	3902	91*
COc1c(Br)cc(Br)cc1C(=O)Nc1ccccc1N1CCCC1	-2	-5.4	-25	7	6	3400	14
CC1(C)CC(=O)C2=C(C1)Nc1ccccc1NC2c1ccc(F)cc1 (centres undefined)	1	.	-21	.	.	4347	.
S=C(NCCc1ccccn1)Nc1cc(Cl)cc(Cl)c1	-11	-2.7	-17	18	14	5917	-15
CCC(=O)N1C(Cc2ccccc2)COC1(C)C (centres undefined)	7	2.2	2	7	-3	2544	7
CCc1ccc(/C(C)=N/NC(=O)C(O)c2ccccc2)s1 (centres undefined)	-6	.	-12	.	.	4297	.
O=C(c1ccco1)N1CCN(C(=O)C2CC(c3ccccc3F)=NO2)CC1 (centres undefined)	5	-1.4	-14	6	3	5216	7
CCC(=NCCc1ccccc1)c1c(O)[nH]c(=O)[nH]c1=O	-11	3.1	-21	16	7	6447	2
O=S1(=O)CC2NC(=S)N(c3cccc(Br)c3)C2C1 (centres undefined)	1	5.5	.	12	7	5981	9
O=C(NC(c1ccccc1)c1ccccc1)c1cccc(S(=O)(=O)NCc2ccccc2)c1	-1	2.0	-4	7	10	2541	-11
O=c1[nH]c2ccc(Cl)cc2c(-c2ccccc2)c1[N+](=O)[O-]	3	.	-19	.	.	2952	.

A run of entries taken from the entries so far, as a working copy:
SMILES	BJeLR lethal	Sa RN4220 lethal	PrP UTR inh	Mtb hypoxia inh	Mtb hypoxia inh growth	Autofluor counter	Sa ugtP lethal
CCC(=NCCc1ccccc1)c1c(O)[nH]c(=O)[nH]c1=O	-11	3.1	-21	16	7	6447	2
O=S1(=O)CC2NC(=S)N(c3cccc(Br)c3)C2C1 (centres undefined)	1	5.5	.	12	7	5981	9
O=C(NC(c1ccccc1)c1ccccc1)c1cccc(S(=O)(=O)NCc2ccccc2)c1	-1	2.0	-4	7	10	2541	-11
O=c1[nH]c2ccc(Cl)cc2c(-c2ccccc2)c1[N+](=O)[O-]	3	.	-19	.	.	2952	.

More structures.
SMILES	BJeLR lethal	Sa RN4220 lethal	PrP UTR inh	Mtb hypoxia inh	Mtb hypoxia inh growth	Autofluor counter	Sa ugtP lethal
CCCC(=O)Nc1ccc(OCC(=O)OC)cc1	1	-1.5	-2	.	.	3063	-1
O=c1c2cnn(-c3ccc(F)cc3)c2ncn1Cc1cccnc1	-3	4.7	-8	20	9	3221	3
Cc1cc(-c2ccccc2C(=O)NC2CCCCC2)on1	6	4.2	-1	-2	6	5515	5
COC(=O)c1ccccc1N=Nc1c(N)[nH][nH]c1=O	-2	.	-1	.	.	6057	.
COc1ccccc1N(CC(=O)NN=C(C)c1ccccc1O)S(=O)(=O)c1ccc(C)cc1	.	-1.2	.	9	3	.	-5
CCCCCc1nnc(NC(=O)c2cccc(S(=O)(=O)N3CCOCC3)c2)s1	.	0.8	-8	8	7	2669	-5
C=CCOC(=O)c1ccccc1C(=O)OCC=C	.	7.5	-28	.	.	4117	9
CC1CCN(S(=O)(=O)c2ccc(C(=O)OCc3ccc4c(c3)OCO4)cc2)CC1	8	3.4	-5	6	2	11363	-4
COc1ccc(CC(=O)N(Cc2ccccc2)c2ccc(C)cc2)cc1S(=O)(=O)N1CCOCC1	-10	1.6	-31	1	-8	6769	5
CCC(CC)C(=O)c1c[nH]c(C(=O)NCc2ccccc2OC)c1	-2	-4.4	-16	-9	5	3963	-4
CCC(=O)Nc1cccc(NC(=O)c2ccc(Br)cc2)c1	-3	.	-17	.	.	1899	.
COc1ccccc1C=NNC(=O)c1ccc(NC(=O)c2ccccc2Br)cc1	.	4.7	.	11	11	.	2
CC1CC(=NNC(=O)c2cccs2)CC(C)(C)C1 (centres undefined)	.	-0.8	.	-4	-6	.	-1
CCOc1ccc(NC2=C(OC)C(=O)c3ccccc3C2=O)cc1	4	16	-64	-6	6	1863	4
O=P(c1ccccc1)(c1ccccc1)C(c1ccccn1)P(=O)(c1ccccc1)c1ccccc1	-9	5.9	.	6	5	3915	9
Cc1cccc(NCc2ccc(N(C)C)cc2)n1	-2	1.2	-65	-3	2	3544	4
